Compound activity from PubChem BioAssay.
UCH37 DUB inh = human UCH37 deubiquitinating enzyme inhibition; Q9Y5K5; purified proteasome/UCH37, Ub-AMC cleavage fluorescence; inhibition, % (no concentration beside the values); hit rate 0.33% among 330,000; AID 588478;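 active = mean of two replicates above 20%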;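 also: 0% = compound-free wells with enzyme and 100% = wells lacking proteasome; stock transfer was 100 nL into about 20 µL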
Target sequence (Q9Y5K5 whole entry, looked up): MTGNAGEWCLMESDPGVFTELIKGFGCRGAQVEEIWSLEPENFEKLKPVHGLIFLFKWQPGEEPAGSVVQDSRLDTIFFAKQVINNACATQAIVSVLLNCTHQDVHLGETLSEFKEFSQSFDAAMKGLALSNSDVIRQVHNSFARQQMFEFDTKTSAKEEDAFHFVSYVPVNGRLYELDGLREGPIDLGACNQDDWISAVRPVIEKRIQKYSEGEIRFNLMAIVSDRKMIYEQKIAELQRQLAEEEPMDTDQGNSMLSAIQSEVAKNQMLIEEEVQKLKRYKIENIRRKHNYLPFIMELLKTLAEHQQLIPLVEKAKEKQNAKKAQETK
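Material: Human UCH37 enzyme supplied as purified proteasome complex | Schedule: 30 min preincubation with enzyme, 25 min cleavage at room temperature | Detection: AMC fluorescence 355/460 nm | Measure: % inhibition of Ub-AMC cleavage fluorescence | Controls: Wells without proteasome as full block, compound-free enzyme plus substrate as uninhibited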
rRNA inh HTS = inhibits bacterial ribosomal RNA function over humanized ribosomes | E. coli WT GFP vs humanized-ribosome RFP mutants, fluorescence, 24 h; stronger effect = lower value; DMSO median 0, no signal -100 | GFP signal change (wild-type ribosome), % (test concentration not listed) | hit rate 1.6% among 350,000 | AID 720706;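 active = significant combined selectivity score with lowered wild-type GFP, culture density cut under 30%, mutant RFP and density less affected; inactive = any of these conditions unmet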; also: one replicate is shown; some compounds called inactive have numbers as strong as hits
HNF4A DNA FP = change in binding of human HNF4 alpha to DNA; activity change, % at 10 µM; P41235; hit rate 0.3% among 360,000; AID 1224865; HNF4a-FITC DNA binding, fluorescence polarization, 1 h; in the data active = activity change above about 30%, passing the limit was not always enough;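 also: controls were the assay level and a saturating level of protein; the project sought stronger binding though the title names inhibitors; some compounds called inactive have numbers as strong as hits; positive values seem to mean higher polarization but the record does not say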
Target sequence (P41235 whole entry, looked up): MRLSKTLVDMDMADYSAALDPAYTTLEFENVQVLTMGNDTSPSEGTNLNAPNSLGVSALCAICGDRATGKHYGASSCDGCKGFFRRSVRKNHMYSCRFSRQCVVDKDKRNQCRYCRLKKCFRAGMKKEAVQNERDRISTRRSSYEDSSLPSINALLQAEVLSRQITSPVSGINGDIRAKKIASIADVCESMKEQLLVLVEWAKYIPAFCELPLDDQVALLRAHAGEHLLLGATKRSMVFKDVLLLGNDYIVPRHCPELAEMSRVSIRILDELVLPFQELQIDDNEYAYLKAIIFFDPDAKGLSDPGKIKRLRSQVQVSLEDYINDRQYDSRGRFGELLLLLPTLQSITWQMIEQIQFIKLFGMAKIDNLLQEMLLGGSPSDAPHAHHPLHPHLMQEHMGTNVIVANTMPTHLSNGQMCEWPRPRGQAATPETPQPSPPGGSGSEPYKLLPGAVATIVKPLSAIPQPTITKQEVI
B2AR ag = agonists of human beta-2 adrenergic receptor inducing internalization | hit rate 0.43% among 340,000 | P07550 | response, % (no concentration beside the values) | Am2.2-beta2AR cells, FAP receptor internalization, flow cytometry; reference of the scale not given here;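 active = response above a set limit, near 3 SD of response in nonfluorescent compounds, cut at about 42% in these data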;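 also: stock transfer was 100 nL into about 11 µL; a reference agonist was the positive control; negative values mostly stem from fluorescent compounds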
Ecoli growth = E. coli growth inhibition; Escherichia coli growth, OD600, 23 h; stronger effect = lower value; AID 1053175; OD600 absorbance (no concentration beside the values); hit rate 0.21% among 330,000;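 active = OD600 absorbance below the run mean of sample wells minus 3.6 SD, in any replicate, cut at about 0.56 in these data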;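 also: stock transfer was 300 nL into about 60 µL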
FGF22 binding = binders of recombinant human FGF22 by thermal shift; Q9HCT0; SYPRO orange fluorescence; percent of sucrose octasulfate shift, DMSO zero; calls only at 9.99 µM; hit rate 1.5% among 340,000; AID 651658;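 active = melting point raised past a set limit in the mean and every replicate; three in four hits are not shown here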
Target sequence (Q9HCT0 whole entry, looked up): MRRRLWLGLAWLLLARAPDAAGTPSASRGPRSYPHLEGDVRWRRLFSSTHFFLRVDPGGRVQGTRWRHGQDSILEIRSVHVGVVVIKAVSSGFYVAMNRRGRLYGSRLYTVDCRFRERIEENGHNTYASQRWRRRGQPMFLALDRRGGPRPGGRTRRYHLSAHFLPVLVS
ALR inh = blocks human ALR sulfhydryl oxidase activity | purified ALR, DTT oxidation, H2O2 HRP-luminol luminescence | inhibition, % (concentration not given with the values) | hit rate 3.8% among 290,000 | AID 485317;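 active = mean and each replicate at 75% or more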;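 also: stock transfer was 7.5 nL into about 7.5 µL; 0% = neutral wells and 100% = wells with inactivated enzyme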
rRNA inh HTS OD600 = recorded beside rRNA inh HTS, whose call it bears; OD600 change, %; measured here: OD600 growth;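 optical density of the mix in the first replicate; 0 = DMSO median and -100 = no signal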
rRNA inh HTS RFP = further read-out of rRNA inh HTS, marked with its call; RFP signal change, %; measured here: RFP humanized mutant strains;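 first replicate; 0 = DMSO median and -100 = no signal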
The depositor's hits bear a star; i = inactive; . = no result given; & = joins results of further samples.

Molecule,UCH37 DUB inh,rRNA inh HTS,rRNA inh HTS OD600,rRNA inh HTS RFP,HNF4A DNA FP,B2AR ag,Ecoli growth,FGF22 binding,ALR inh
O=C(N/N=C/c1ccsc1)c1ccccn1,.,31,22,4.3,0.9,-22,.,i,.
Cc1cc(SCC(=O)OCC(=O)N2CCCC2=O)c(C)cc1Br,0.2,-16,-16,-0.8,-2.0,-5,0.7,i,21
CCOc1ccc2nc(SCc3ccccc3C#N)sc2c1,1.0,.,.,.,-2.9,3,0.6,.,-4
CCCN1Cc2cccc(C(=O)N3CCN(c4ccccc4)CC3)c2C1=O,2.7,.,.,.,-1.3,1,0.69,.,58
CCOC(=O)C1=C(C)NC(=O)NC1c1ccc(NC(C)=O)cc1 (stereo unspecified),0.3,.,.,.,5.7,-7,0.69,.,-3
COc1ccc(NC(=O)Cc2ccc(C)c(C)c2)cc1S(=O)(=O)N1CCCCC1,5.9,-29*,-16*,0.5*,3.4,-2,0.7,i,4
CC(=O)Nc1cccc(NC(=O)CSc2ncc(-c3ccccc3)[nH]2)c1,0.4,-10,-2,13,1.5,4,0.64,i,99*
Cc1ccc(Nc2nnc(SCC(=O)NCC3CCCO3)s2)cc1 (stereo unspecified),2.5,3,2,-2.1,4.1,-8,0.64,i,10

Two of the compounds above, field by field:
> CCOC(=O)C1=C(C)NC(=O)NC1c1ccc(NC(C)=O)cc1 (stereo unspecified)
  UCH37 DUB inh: 0.3 | rRNA inh HTS: . | rRNA inh HTS OD600: . | rRNA inh HTS RFP: . | HNF4A DNA FP: 5.7 | B2AR ag: -7 | Ecoli growth: 0.69 | FGF22 binding: . | ALR inh: -3

> COc1ccc(NC(=O)Cc2ccc(C)c(C)c2)cc1S(=O)(=O)N1CCCCC1
  UCH37 DUB inh: 5.9 | rRNA inh HTS: -29* | rRNA inh HTS OD600: -16* | rRNA inh HTS RFP: 0.5* | HNF4A DNA FP: 3.4 | B2AR ag: -2 | Ecoli growth: 0.7 | FGF22 binding: i | ALR inh: 4

Going on with the list:
Molecule,UCH37 DUB inh,rRNA inh HTS,rRNA inh HTS OD600,rRNA inh HTS RFP,HNF4A DNA FP,B2AR ag,Ecoli growth,FGF22 binding,ALR inh
CCOC(=O)c1sc2nc3c(cc2c1N)COC(C(C)C)C3 (stereo unspecified),-174,.,.,.,-1.3,10,0.71,.,-1
COCOCCn1cc(CN2CCS(=O)(=O)N(Cc3ccc(-c4ccccc4)cc3)C(CC(C)C)C2=O)nn1 (stereo unspecified),.,-7,-4,-1.5,-5.1,.,.,i,.
Cc1cc(NCc2ccccc2)n2ncnc2n1,-1.5,15,4,-1.5,-2.9,-1,0.69,i,-13
COc1ccc(C[C@H]2CN3C(=NC[C@@H]3C(C)C)N2C[C@H](C)NC(=O)c2ccc(C)c(Br)c2)cc1,5.2,8,7,-14,1.2,17,.,i,.
CCOc1ccc(NC(=O)C2CCCN2C(=O)NC2CCCCC2)cc1 (stereo unspecified),3.6,6,14,-0.9,3.9,-10,0.7,i,-1
Cc1ccc(CCN2CC(C(=O)NCCN(C)C)CC2=O)cc1 (stereo unspecified),0.8,15,7,0.1,1.9,-1,0.68,i,.
Cc1ccc(-c2noc(C3CCCN(C(=O)c4cccc([N+](=O)[O-])c4)C3)n2)o1 (stereo unspecified),5.1,7,0,-1.1,2.3,-6,0.69,i,8
NC(CC(=O)OC1CCCCC1)C(=O)OC1CCCCC1 (stereo unspecified),2.5,.,.,.,4.7,5,0.74,.,7
Cc1ccc(N2CC(C(=O)Nc3ccccc3OC(F)F)CC2=O)cc1 (stereo unspecified),0.5,-3,-6,-2.8,0.3,8,0.67,i,-2
COC(=O)c1ccccc1NC(=S)N1CCN(c2ccccc2)CC1,4.1,-2,-6,-5.5,-1.8,2,0.68,i,8
C=CCn1c(-c2cccc(S(=O)(=O)N(CC)CC)c2)n[nH]c1=S,1.6,-3,-2,0.2,2.1,13,0.7,.,3
CCN(C(=O)CSc1nnc2nc(C)cc(C)n12)c1ccccc1,1.5,-6,-5,1.2,-2.7,3,0.67,i,0
COc1cc(-c2c(-c3ccc4c(c3)OCO4)noc2-c2ccsc2)ccc1F,-0.2,6,13,7.1,1.7,10,0.7,i,-4
CC1(C(=O)NS(=O)(=O)c2cccc(Cl)c2)CCN1C(=O)Cc1cccs1 (stereo unspecified),.,2,9,-7.3,3.2,.,.,i,.
COc1ccc(CCC(=O)NNC(=O)Nc2ccc(OC)c(OC)c2)cc1,-1.1,21,10,6.3,3.6,1,0.73,i,-18
COc1ccc(-n2nc(C(=O)NCC(=O)Nc3cc(Cl)c(OC)cc3OC)c3ccccc3c2=O)cc1,-9.7,2,10,-0.8,6.9,16,0.71,i,-6

Reprinted from the part before: 2 compounds, then new ones.
Molecule,UCH37 DUB inh,rRNA inh HTS,rRNA inh HTS OD600,rRNA inh HTS RFP,HNF4A DNA FP,B2AR ag,Ecoli growth,FGF22 binding,ALR inh
COc1ccc(CCC(=O)NNC(=O)Nc2ccc(OC)c(OC)c2)cc1,-1.1,21,10,6.3,3.6,1,0.73,i,-18
COc1ccc(-n2nc(C(=O)NCC(=O)Nc3cc(Cl)c(OC)cc3OC)c3ccccc3c2=O)cc1,-9.7,2,10,-0.8,6.9,16,0.71,i,-6
COc1ccc2[nH]c3c(c2c1)CCN1C(=O)N([C@@H](C)C(=O)NC2CC2)C(=O)[C@]31C,1.3,.,.,.,1.1,0,0.75,i,1
Cc1csc(NC(=O)c2cc[n+]([O-])cc2)n1,7.8,13,21,2.4,-0.3,2,0.65,i,-1
C[C@H](CO)N1C[C@H](C)[C@@H](CN(C)Cc2cccc(C(F)(F)F)c2)OCc2cnnn2CCCC1=O,.,-2&-3,7&-3,7.2&-1.1,2.9,.,.,i,.
CCOC(=O)c1ccccc1NC(=O)COC(=O)CSc1ccccc1,2.3,10,5,0.9,-0.9,-5,0.61,.,-3
CC1(C)N=C(N)N=C(N)N1c1ccc(CCCCc2ccccc2)cc1,.,-71,-82,-28,-1.7,.,.,i,.
CCCCC(=O)Nc1ccc(NC(=O)c2ccco2)cn1,0.6,-1,3,1.3,6.0,-8,0.63,i,-2
CCOC(=O)N1CCN(CC(=O)c2ccc(O)c(C)c2O)CC1,2.1,0,5,0.0,6.4,-4,0.7,i,1
O=S(=O)(c1ccc(F)cc1)c1nc(-c2ccco2)oc1Nc1ccc(F)cc1,-7.2,.,.,.,-3.3,1,0.7,.,.
COc1c(Cl)cccc1-c1cn2ccccc2n1,-35,-12,-24,-4.6,-1.9,-26,0.68,i,1
CC(C)(C)CN1C(=O)C(=O)NC[C@@H]1Cc1ccc(O)cc1,1.4,4,-3,-6.5,-3.6,1,.,i,13
O=C(CC(=O)NCc1ccccc1)NCc1ccccc1,-0.5,5,9,-2.1,0.3,-29,0.65,i,0
CCCCn1nnnc1C(c1ccccc1OC(F)(F)F)N1CCN(C/C=C/c2ccccc2)CC1 (stereo unspecified),.,-23,-39,1.0,0.9,.,.,i,.
O=C1CCC(C(=O)N2CCCCO2)CN1CCc1ccccc1 (stereo unspecified),-1.2,1,-1,-0.1,2.4,39,0.7,i,-1
CC(NS(=O)(=O)c1ccccc1)C(=O)NC1CCCC1 (stereo unspecified),-1.2,3,8,1.7,-1.2,4,0.66,i,-4
O=C(N/C=N/O)C(c1ccccc1)c1ncc(C(F)(F)F)cc1Cl (stereo unspecified),-1.0,4,-4,11,-0.5,-8,0.62,i,.
Cn1c(NC(=O)C2c3ccccc3Oc3ccccc32)cc(=O)n(C)c1=O,-0.3,.,.,.,0.0,8,0.73,.,28
CN(C)c1cccc(C(=O)OCCNC(=O)c2cccc(S(=O)(=O)N3CCOCC3)c2)c1,-2.9,-15,-12,-11,2.0,-5,0.69,i,3
CN(c1ccc(C(=O)Nc2ccccc2C(=O)N2CCOCC2)cc1)S(C)(=O)=O,2.0,.,.,.,1.0,-7,0.73,.,.
c1ccc(SCc2nc3ccccc3[nH]2)nc1,3.8,.,.,.,1.0,-4,0.75,.,-10
Cc1cc(Nc2cccc(C(=O)O)c2)n2ncnc2n1,4.3,4,9,-2.3,0.0,4,0.7,i,-10
CNC(=S)N(Cc1ccc(Cl)cc1)Cc1cccs1,0.8,-43*,-20*,-13*,-0.8,5,0.69,i,-13
COC(=O)C1CCN(C(=O)c2cc(=O)[nH]c3ccccc23)CC1,-8.0,18,18,7.0,0.9,-13,0.7,.,-6
Cc1noc(C)c1COc1ccccc1C(=O)NCCOc1ccccc1,4.9,5,-3,-0.2,2.4,1,0.69,i,.
O=C(Nc1ccccc1)C(c1ccccc1)c1ccccc1,2.8,14,11,0.7,-0.7,0,0.65,i,-14
O=C(Cc1ccsc1)Nc1ccc2c(c1)OCO2,1.6,.,.,.,-0.2,-3,0.67,i,-19
COc1ccccc1C(=O)NNC(=O)c1ccc(NS(=O)(=O)c2cccs2)cc1,2.0,2,1,-2.0,2.3,25,0.7,i,-2
O=[N+]([O-])c1ccccc1SNc1ccccc1,.,-62,-78,-19,1.6,.,.,i,.
CN(C)C(=S)Nc1cccc(-c2n[nH]c(=S)o2)c1,-5.8,10,14,-5.8,0.6,1,0.69,i,60
CCC(C)N(CCNC(=O)CC1Oc2ccc(C)cc2NC1=O)C1CCCCC1 (stereo unspecified),3.4,9,4,-0.8,0.8,2,0.77,i,-4
Cc1ccc2c(CN3CCN(Cc4ccccc4)CC3)cc(=O)oc2c1,3.0,-8,-7,-4.4,-0.3,28,0.63,i,.
COc1ccc2[nH]c(=O)c(CN(C(=O)c3ccccn3)c3ccccc3)cc2c1,-46,.,.,.,-3.0,3,0.75,.,21
CN(C)CCNc1oc(-c2ccccc2Cl)nc1S(=O)(=O)c1ccccc1,.,0,1,-1.9,6.6,21,.,i,.

An excerpt from above in order of their number in ALR inh, smallest number first:
SMILES | ALR inh
COc1ccccc1C(=O)NNC(=O)c1ccc(NS(=O)(=O)c2cccs2)cc1 | -2
COc1ccc2[nH]c(=O)c(CN(C(=O)c3ccccn3)c3ccccc3)cc2c1 | 21
CN(C)C(=S)Nc1cccc(-c2n[nH]c(=S)o2)c1 | 60

The results go on.
Molecule,UCH37 DUB inh,rRNA inh HTS,rRNA inh HTS OD600,rRNA inh HTS RFP,HNF4A DNA FP,B2AR ag,Ecoli growth,FGF22 binding,ALR inh
CN(C)c1ccc(S(=O)(=O)NCC(=O)NCCOc2ccccc2F)cc1[N+](=O)[O-],4.2,-7,-10,0.1,1.2,2,0.68,i,-3
O=S(=O)(c1ccc(Br)cc1)N1CCC2(CC1)OCCO2,-0.6,.,.,.,-2.0,1,0.65,i,-4
CCOC(=O)/C=C/C(=O)N1CCc2ccccc21,2.8,.,.,.,0.8,0,0.67,.,13
COCCn1nnnc1C(c1ccc(OC)c(OC)c1)N1CCc2ccccc21 (stereo unspecified),5.0,0,-1,0.7,-0.8,2,0.69,i,50
O=C(NCCCn1ccnc1)C(=O)NCC1OCCN1S(=O)(=O)c1ccc(Cl)cc1 (stereo unspecified),1.4,3,-1,-1.1,-0.6,-4,0.72,i,-6
COc1cc(Nc2nnc(C)s2)c(Cl)cc1Cl,1.8,.,.,.,1.9,-13,0.76,.,-7
COc1ccc(-c2oc3ccc(-c4ccc5c(c4)OCO5)cc3c2-c2ccc(OC)nc2)cc1,-51,10,9,-0.6,1.8,41,0.82,i,6
Cc1cc(C)c(C(=O)NCC(=O)c2ccccc2)c(C)c1,2.2,11,-8,-2.1,2.0,-2,0.69,i,6
COc1ccc(-c2coc3c(C(=O)NCC(C)C)cccc23)c(C)c1,.,-11,-25,-3.9,0.0,.,.,i,.
Cc1ccsc1/C=C/c1ccc2cccc(O)c2n1,0.6,.,.,.,2.0,6,0.68,.,-12
OCc1nc2ccccc2n1CCCc1ccccc1,.,6,-28,-0.5,4.1,.,.,i,.

Only part of the results is shown; rates above refer to the full screens.
